# Screens from PubChem BioAssay.
# 2A StopGo – High Throughput Screening for Foot and Mouth Disease Virus Antivirals; human cells with a luciferase reporter of 2A StopGo recoding; control for the full effect not named in the record; Potency, µM (top dose mostly 57.9 µM), for the others: top-dose signal change, negative = less light; 1.2% of 410,000 active; active = well fitted falling curve with a large enough effect; inconclusive = small, poorly fitted or top-dose-only effect; inactive = no such curve, though single readings can be large or run the other way; tested in HEK293T cells; also: nearly all actives have a fitted effect of over 45% in size; luciferase light after 4 h
# RE007 growth inh – qHTS Assay for Inhibitors of the HIV-1 protein Vpr | S. pombe RE007 Vpr strain, BacTiter-Glo ATP luminescence, 24 h; control for the full effect not named in the record | Potency, µM (doses to about 92.2 µM), without a hit: at the highest dose activity change, negative = less growth | 0.21% of 360,000 active; active = well fitted falling curve with a large enough effect; inconclusive = small, poorly fitted or top-dose-only effect; inactive = no such curve, though single readings can be large or run the other way;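 also: nearly all actives have a fitted effect of over 50% in size; the assay follows cell death caused by Vpr and the record does not say whether a fall means rescue or toxicity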
#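 Fission yeast RE007 carrying one integrated HIV-1 vpr copy, seeded at OD 0.01 in PMG+AL medium with 23 nL pinned compound. Grown 24 h at 30 degrees; viability read by BacTiter-Glo luminescence after 5 min.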
# Active calls of the source: *; ? = inconclusive; [ ] = dose if it differs, or a comment. % is scaled to controls: 0 for no effect and ±100 for the full control effect; potency is read from the fitted curve at half-maximal effect. Not all compounds are listed, so the mix of outcomes need not match the whole.
Molecule	RE007 growth inh	2A StopGo
CCc1nc2ccc(C(=O)NCCCn3ccnc3)cn2c1N(C)CCC(C)C	2%	-21%
CCOC(=O)CCCCCC(=O)Nc1ccc2c(c1)C(=O)N([C@@H](C)CO)C[C@H](C)[C@H](CN(C)S(=O)(=O)c1ccc(OC)cc1)OCCCC[C@H](C)O2	-5%	-14%
CN1CC(O)(C(O)C(O)C(O)CO)SC1=S (stereo not drawn)	8%	-10%
O=C(c1ccccc1)N(CCCn1ccnc1)C(c1ccccc1)c1nc2ccccc2[nH]1 (stereo not drawn)	-17%	0%
CC1(C(=O)Nc2cccc(NS(C)(=O)=O)c2)CCN1Cc1ccccc1OC(F)F (stereo not drawn)	3%[18.4 µM]	-5%
Cc1cc(C)c(S(=O)(=O)NN=C2c3ccccc3[C@H]3Cc4csc[n+]4[C@@H]23)c(C)c1	-16%	-8%
COc1ccc(-c2[nH][nH]c(=O)c2NC(=O)c2ccc(C)cc2)cc1	6%	-18%
COc1cccc(-c2cnc(C(O)c3ccccc3OC)[nH]2)c1 (stereo not drawn)	-3%	41%[activator]
CCOC(=O)C1(C)CCCN1C(=O)c1ccccc1F (stereo not drawn)	9%	-5%
O=C(c1ccccc1)N(C(=O)c1ccccc1)c1ccccc1	-11%	0%
COc1ccc(Cn2cc(CN3CCc4onc(-c5ccccc5OC)c4C3=O)nn2)cc1	-5%	-19%
COC(=O)c1ccc2nc(-c3cccc(Br)c3)c(Cc3ccccc3OC)n2c1	-22%	-14%
COCC(=O)N(C)[C@H]1C[C@H]2c3cc(-c4ccccc4)ccc3CCN2C(=O)[C@H]1[C@H](C)O	16%	-4%
COc1ccc(Cl)cc1C(=O)NC1CC(C)(C)NC(C)(C)C1	-4%	2%
COc1cc(-c2coc3c(C(=O)NCc4ccncc4)cccc23)ccc1O	-14%	?
COc1ccc(-c2nc3c4ccccc4ccn3c2Cc2ccsc2)cc1OC	-19%	24%
COCCNC(=O)C1(C)CCN(Cc2ccccc2C#N)C1 (stereo not drawn)	-10%	-12%
COc1ccc(-c2nc3cc(C)c(Br)c(C)n3c2CC(C)(C)C)cc1OC	-12%	0%
CCOC(=O)C1(C)CCCN1C(=O)c1ccc(Cl)nc1 (stereo not drawn)	-10%[18.4 µM]	-12%
COc1ccc(/C=C/C(=O)OCC(=O)Nc2nnc(-c3ccccc3)o2)c(OC)c1	18%	-14%
CCCC(=O)N1CCOCC1c1cc(C(=O)NCc2ccccc2)no1 (stereo not drawn)	12%	-9%
COC(=O)c1ccc2nc(-c3ccco3)c(Cc3ccccc3C(F)(F)F)n2c1	-4%	-25%
O=C(Nc1ccc(Nc2ccccc2)cc1)c1ccc(Cl)cc1	-15%	4%
Clc1cccc(CNc2ccn3nc(-c4cccs4)cc3n2)c1	?	17%

# Look-ups from above.
# COc1ccc(-c2nc3c4ccccc4ccn3c2Cc2ccsc2)cc1OC | 2A StopGo = 24%
# COCC(=O)N(C)[C@H]1C[C@H]2c3cc(-c4ccccc4)ccc3CCN2C(=O)[C@H]1[C@H](C)O | 2A StopGo = -4%
# CCOC(=O)C1(C)CCCN1C(=O)c1ccc(Cl)nc1 (stereo not drawn) | 2A StopGo = -12%
# COc1ccc(/C=C/C(=O)OCC(=O)Nc2nnc(-c3ccccc3)o2)c(OC)c1 | 2A StopGo = -14%
# COCCNC(=O)C1(C)CCN(Cc2ccccc2C#N)C1 (stereo not drawn) | 2A StopGo = -12%

# Next section:
Molecule	RE007 growth inh	2A StopGo
CN(Cc1ccccc1)C(=O)c1cccc(NC(=O)Cc2ccc(NC(=O)C3CCCN(C(=O)c4ccccc4)C3)cc2)c1 (stereo not drawn)	15%	-20%
O=c1c2cc(C(F)(F)F)ccc2sn1-c1ccccc1	8.9µM*	?
C#CCn1cc(CNC[C@H]2O[C@@H](n3cnc4c(=O)[nH]c(N)nc43)[C@H](O)[C@@H]2O)c2ccccc21	-4%	-4%
C=CCOc1ccccc1OCC(O)CNC(C)C (stereo not drawn)	6%[18.4 µM]	-12%
C#CCN1C=CC(=O)[C@@H](OC(=O)Nc2ccc(Cl)cc2)[C@H]1c1ccccc1Br	-16%	-17%
CCO[C@@H]1OC(C(=O)O)=C[C@H](c2cn(C(C)=O)c3ccccc23)[C@H]1CCCO	2%	-13%
O=C(NCc1cccc(C(F)(F)F)c1)c1c[nH]c(=O)s1	10%[18.4 µM]	-18%
Cc1cccc(C)c1-n1nnnc1C1(C)CCC(=O)N1C1CCN(Cc2ccccc2)CC1 (stereo not drawn)	-27%	-16%
CCN(c1ccccc1)S(=O)(=O)c1cccc(C(=O)Nc2cccc(C)n2)c1	-15%	-24%
CC(=O)Nc1ccc(CN(C)c2c(C)nc3ccc(C(=O)NCCCN4CCCC4=O)cn23)cc1	-8%[18.4 µM]	-22%
COc1ccc(CCNC(=O)CNC(=O)N2CC(=O)Nc3ccccc32)cc1	1%	-1%
CC1(c2nnnn2C2CCCC2)CCC(=O)N1c1ccc2c(c1)OCCO2 (stereo not drawn)	-15%	-9%
COc1cccc(C(O)c2nc(-c3ccccc3OC)cs2)c1 (stereo not drawn)	4%	-18%
C[C@H]1CN([C@@H](C)CO)C(=O)CCCn2nncc2CO[C@@H]1CN(C)S(=O)(=O)c1ccc2ccccc2c1	-11%	-15%
COc1cccc(CN(C)C[C@@H]2OCc3ccccc3-c3c(n(C)c4ccccc34)C(=O)N([C@@H](C)CO)C[C@H]2C)c1	1%	?
CCN(C(=O)CSc1nnc(COc2ccccc2F)n1N)c1c(N)n(Cc2ccccc2)c(=O)[nH]c1=O	15%	-16%
COc1ccc2c(c1)C(C)(Cc1ccc(C(=O)c3ccccc3)cc1)C(=O)N2 (stereo not drawn)	7%[18.4 µM]	?
COc1cc(C)ccc1S(=O)(=O)NC(=O)C1(C)CCN1C(=O)C1(c2ccc(Cl)cc2)CCC1 (stereo not drawn)	-7%[18.4 µM]	-1%
COCOCCn1cc(CN2CCS(=O)(=O)N(Cc3ccc(-c4ccc(Cl)cc4)cc3)C(C(C)C)C2=O)nn1 (stereo not drawn)	5%	-22%
CCN(CC)C(=O)C1=C(C)N(Cc2ccc(OC)cc2)C(=O)C(CC(=O)NC2CCCCC2)C1 (stereo not drawn)	17%	-3%
COc1ccc(Cl)cc1NS(=O)(=O)c1cccc(C(=O)NC2CCN(Cc3ccccc3)CC2)c1	-7%	?
O=C(Nc1cccc(OC(F)(F)F)c1)[C@@H]1O[C@H](CO)[C@H](O)[C@H](O)[C@H]1O	1%[18.4 µM]	2%
CCOc1ccc(Cl)cc1-c1cc(C(=O)NC(C)C)[nH]n1	-12%	-4%
O=C1C=C(C2OC(CO)C(O)C2O)C(=O)N1 (stereo not drawn)	-10%	40µM*
CC(C)c1ccc(CN2CCC2(C)C(=O)Nc2cnc3ccccc3c2)cc1 (stereo not drawn)	-1%	-27%
COc1cc(C(=O)N2CCN(S(=O)(=O)c3ccc(C(C)C)cc3)CC2)ccc1OCC(=O)N1CCOCC1	8%	-10%
CN1CCN(c2ncnc3c2ncn3[C@H]2CN(Cc3cccnc3)C[C@@H](CO)O2)CC1	2%	-5%
CCCCNC(=O)c1nc(C2CCN(S(=O)(=O)c3ccccc3)CC2)oc1-c1cccc(C(F)(F)F)c1	8%	-7%
CCC(Sc1nc2ccsc2c(=O)n1Cc1ccc(C(=O)O)cc1)C(=O)Nc1cc(Cl)ccc1C (stereo not drawn)	-11%	-6%
CCn1c2ccccc2c2cc(C#N)c(N)nc21	-15%	-6%
COC1OCC(O)C(NC(=O)N(C)N=O)C1O (stereo not drawn)	18%	-13%
Cc1cc(Cl)ccc1OCCCC(=O)Nc1cc(S(=O)(=O)N2CCOCC2)ccc1N1CCOCC1	-11%	-15%
C[C@H]1CN([C@@H](C)CO)C(=O)CCCn2nncc2CO[C@H]1CN(C)C(=O)Nc1ccccc1	-16%	10%
CCNC(=O)C1(C)CCN(C(=O)c2ccc(OC)c(OC)c2)C1 (stereo not drawn)	18%	-7%
O=C(Oc1ccc(=O)[nH]n1)c1ccccc1	0%	0%
CCOC(=O)c1sc2nc(OCCN3CCOCC3)cc(C)c2c1N	-11%	4%

# As a working copy, some entries already given:
Molecule	RE007 growth inh	2A StopGo
COc1cc(C(=O)N2CCN(S(=O)(=O)c3ccc(C(C)C)cc3)CC2)ccc1OCC(=O)N1CCOCC1	8%	-10%
CN1CCN(c2ncnc3c2ncn3[C@H]2CN(Cc3cccnc3)C[C@@H](CO)O2)CC1	2%	-5%
CCCCNC(=O)c1nc(C2CCN(S(=O)(=O)c3ccccc3)CC2)oc1-c1cccc(C(F)(F)F)c1	8%	-7%

# Next structures
Molecule	RE007 growth inh	2A StopGo
CN(C)c1ccc(CC(=O)N2CCCC(c3cc(C(=O)Nc4ccc(C(C)(C)C)cc4)no3)C2)cc1 (stereo not drawn)	0%	18µM*
C/C(=N\NC(=O)c1ccccc1-n1cccc1)c1ccccn1	-15%	?
O=C1CCC(c2ccccc2)c2ccccc21 (stereo not drawn)	7%	-16%
CCOc1ccc(S(=O)(=O)N2CCC(C(=O)Nc3ccccc3N3CCCC3)CC2)cc1	11%	-19%
C[C@H](CO)N1C[C@H](C)[C@@H](CN(C)C(=O)NC2CCCCC2)OCc2cnnn2CCCC1=O	-18%	-27%
Cc1c(-c2ccccc2)cnc2c(C)cccc12	-9%	-2%
O=C(OCc1ccccc1)N1Cc2ccnnc2CC1c1ccccc1Br (stereo not drawn)	6%	-20%
CC(C)(C)Nc1c(C2CCNCC2)nc2c(OCc3ccccc3)cccn12	-19%	-26%
CN(C)CCCOc1ccc(-c2cc3nc(NCc4cccnc4)n(C)c(=O)c3s2)cn1	-11%	20%
CCc1ccc(-n2c(=S)sc3c(=O)[nH]c(SCC(=O)NC4CCCCC4)nc32)cc1	-20%	-16%
OCC[C@@H]1C[C@H](O)[C@@H](O)[C@]2(CCCO2)O1	3%	-3%
CC(C)C(N)c1csc(Nc2ccc(C(=O)c3ccccc3)cc2)n1 (stereo not drawn)	-11%	-8%
CCCS(=O)(=O)NC(=O)C1(C)CCN(C(=O)c2cncc(Br)c2)C1 (stereo not drawn)	4%	-3%
CCCc1ccc(C(O)c2ncc(-c3ccccc3)[nH]2)cc1 (stereo not drawn)	-17%	79%[activator]
CCOC(=O)c1ccccc1NC(=O)c1c(O)[nH]c(=O)[nH]c1=O	14%	-7%
OC(c1cccc(Cl)c1)c1nc(/C=C/c2ccc(C(F)(F)F)cc2)cs1 (stereo not drawn)	?	-22%
COc1cccc(-c2cnc(C(O)c3cccc(F)c3)[nH]2)c1 (stereo not drawn)	-21%	71%[activator]
C[C@@H]1CCCCO[C@H](CN(C)S(=O)(=O)c2cn(C)cn2)[C@H](C)CN([C@@H](C)CO)C(=O)c2cc(NC(=O)c3ccccc3)ccc2O1	10%	-17%
C[C@@H]1CN([C@H](C)CO)C(=O)CCCn2nncc2CO[C@H]1CN(C)Cc1cccc(O)c1	4%	-2%
CC1(c2nnnn2C2CCCCC2)CCC(=O)N1Cc1ccc2c(c1)OCO2 (stereo not drawn)	5%	-13%
COCCN1C[C@@H](CO)O[C@@H](n2cnc3c(N4CCOCC4)ncnc32)C1	-6%	0%
CN1CCC(N2CCN(C3CN(Cc4cn(Cc5cccc(C(F)(F)F)c5)nn4)S(=O)(=O)C3)CC2)CC1 (stereo not drawn)	-3%	0%
COc1ccc(-c2cc3nc(NCCNC(C)=O)n(C)c(=O)c3s2)c(C)c1	-5%	0%
Cc1ccc(-c2nc3cc(C)c(Br)c(C)n3c2Cc2cccc(Cl)c2)cc1	-2%	3%

# Four entries already listed, ordered by length of the SMILES, ascending:
Molecule	RE007 growth inh	2A StopGo
CC1(c2nnnn2C2CCCCC2)CCC(=O)N1Cc1ccc2c(c1)OCO2 (stereo not drawn)	5%	-13%
OC(c1cccc(Cl)c1)c1nc(/C=C/c2ccc(C(F)(F)F)cc2)cs1 (stereo not drawn)	?	-22%
COCCN1C[C@@H](CO)O[C@@H](n2cnc3c(N4CCOCC4)ncnc32)C1	-6%	0%
C[C@@H]1CCCCO[C@H](CN(C)S(=O)(=O)c2cn(C)cn2)[C@H](C)CN([C@@H](C)CO)C(=O)c2cc(NC(=O)c3ccccc3)ccc2O1	10%	-17%

# The list continues.
Molecule	RE007 growth inh	2A StopGo
COC(=O)[C@]12CCCCC=C1N(Cc1ccc(Cl)cc1Cl)C(=O)[C@H](CC(=O)N1CCN(C(=O)C3CC3)CC1)C2	11%	-28%
Cc1cccc(C)c1C(O)c1ncc(-c2ccccc2C(F)(F)F)[nH]1 (stereo not drawn)	-3%[18.4 µM]	19%
CC(C)CC1C(=O)N(Cc2cn(CCC3OCCO3)nn2)CCS(=O)(=O)N1Cc1ccc(-c2cccc(CO)c2)cc1 (stereo not drawn)	4%	-28%
CCC(c1nc2ccccc2[nH]1)n1c(-c2ccc3ccccc3c2)nc2ccccc21 (stereo not drawn)	14%	-7%
Cc1cccc(C(O)c2ncc(-c3ccc(Cl)cc3)[nH]2)c1C (stereo not drawn)	-4%	18%
Cc1cc(OC(C)C(=O)NC2CC(C)(C)NC(C)(C)C2)c2c(C)c(C)c(=O)oc2c1 (stereo not drawn)	-2%	6%
CCCNC(=O)C1(C)CCN(C(=O)COc2ccc(Cl)cc2Cl)C1 (stereo not drawn)	-3%	-16%
COc1ccc(NC(=O)C2CCN(S(=O)(=O)c3ccc(Cl)c(C(F)(F)F)c3)CC2)cn1	-2%	-11%
COc1ccc(-c2ccc(C(=O)NCC3CC3)c3occc23)c(C)c1	53%	?
